Screens (PubChem)
GLA inh pH 4.5: qHTS Assay for Inhibitors of Human alpha-Galactosidase at pH 4.5; Alpha-galactosidase A (Homo sapiens), P06280; purified enzyme, 4-MU-alpha-Gal fluorescence, pH 4.5; activity change, negative = inhibition, % at 105 µM; 230,000 tested, under 10 active; inconclusive = small, poorly fitted or top-dose-only inhibition, or a rising curve; inactive = flat fitted curve, though single readings scatter; no compound was filed as active;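 also: 0% = full activity with enzyme and -100% = basal without enzyme; dose as in the result columns while the protocol names 77 µM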
Target sequence (P06280 whole entry, looked up): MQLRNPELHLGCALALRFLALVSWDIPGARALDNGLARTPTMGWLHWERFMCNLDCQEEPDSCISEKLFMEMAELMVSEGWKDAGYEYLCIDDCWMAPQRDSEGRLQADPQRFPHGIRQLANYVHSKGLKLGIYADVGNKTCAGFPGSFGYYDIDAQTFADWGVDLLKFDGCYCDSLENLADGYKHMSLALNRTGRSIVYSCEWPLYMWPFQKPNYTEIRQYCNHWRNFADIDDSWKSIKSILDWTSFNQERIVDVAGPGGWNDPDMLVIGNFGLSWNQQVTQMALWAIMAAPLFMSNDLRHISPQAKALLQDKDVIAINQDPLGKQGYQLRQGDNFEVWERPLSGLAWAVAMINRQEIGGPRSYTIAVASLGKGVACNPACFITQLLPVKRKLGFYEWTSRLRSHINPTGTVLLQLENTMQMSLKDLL
Rango release inh: qHTS Assay for Inhibitors of RanGTP induced Rango (Ran-regulated importin-beta cargo) - Importin beta complex dissociation | 340,000 compounds, 0.071% hits | Snurportin-1 (Homo sapiens) + GTP-binding nuclear protein Ran (Homo sapiens) + Importin … | Biochemical FRET Rango-importin beta, RanGTP-induced dissociation | Potency, µM (highest dose often 46.1 µM), for inactives: top-dose activity change, negative = inhibition; active means falling FRET ratio curve, often poorly fitted, with flat reads before Ran was added; inconclusive means other falling curves, or compound fluorescence or quenching; inactive means flat or rising ratio curve;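 also: potency is read from the fitted curve at half-maximal effect; % of control where 0% means no effect; nearly all actives have a fitted effect of over 45% in size; -100% = wells without RanGTP and RCC1; the record marks most hits as doubtful in a second field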
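FRET read at 45 min, room temperature: inhibitors block the CFP/YFP signal rise when RanGTP (0.6 uM Ran, 2 mM GTP, 0.2 uM RCC1) frees Rango (0.1 uM) from importin beta (0.25 uM). Pre-read after 5 min compound exposure flags interference.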
Rango complex inh: qHTS Assay for Inhibitors of Rango (Ran-regulated importin-beta cargo) - Importin beta complex formation; Importin subunit beta-1 (Homo sapiens), Q14974; Rango CFP/YFP FRET sensor + importin beta, 45 min; Potency, µM (doses to about 92.2 µM), for inactives: at the highest dose inhibition of complex formation; 340,000 compounds, 0.031% hits; active = rising FRET ratio curve, often small or poorly fitted; inconclusive = mostly compound fluorescence or quenching in the first reads; inactive = flat curves in all reads;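 also: potency is read from the fitted curve at half-maximal effect; 0% = DMSO wells and 100% = buffer wells lacking importin beta; nearly all actives have a fitted effect of over 15% in size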
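FRET biosensor Rango (snurportin 1 IBB between N-terminal EYFP and C-terminal Cerulean), 50 nM in PBS/1 mM DTT/0.02% Tween-20/0.1% BSA, preincubated 5 min RT with compound; 0.125 microM importin beta added, 45 min RT, CFP/YFP FRET ratio read.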
miR-21 FLuc: qHTS Assay for Modulators of miRNAs and/orActivators of miR-21 | HeLa miR-21 FLuc reporter, luciferase, 48 h | 340,000 tested, under 10 active | Potency, µM (highest dose often 38.3 µM), inactives show at the top dose reporter change, positive = more light; active = well fitted rising curve with a large enough effect; inconclusive = small, poorly fitted or top-dose-only effect; inactive = no such curve, though single readings can be large or run the other way;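 also: % of control where 0% means no effect; miR-21 action dims this reporter so a rising signal means less miR-21 action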
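HeLa cells stably expressing CMV-driven firefly luciferase with a downstream miR-21 binding sequence, endogenously expressing miR-21, were treated with titrations (up to about 40uM final) for 48 hours at 37 degree Celsius. Luciferase luminescence was read after lysis.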
The depositor's hits bear a star; ? = inconclusive; . = not tested or not shown; & = joins results of further samples. Some of the compounds tested. The share of hits here may be higher or lower than overall.

Results follow in this order: GLA inh pH 4.5, Rango release inh, Rango complex inh, miR-21 FLuc
1	N#Cc1ccc(S(=O)(=O)N2CCN(Cc3cccs3)CC2)cc1
  ., 0.2%, -5.0%, .
2	CON1C(=O)C(=O)N(OC)C2CCCCCC21 (centres undefined)
  4.9, -8.3%, -2.2%, -0.7%
3	COCCNc1nc(C)cc(-c2cc(C(=O)Nc3ccccc3)on2)n1
  ., -6.3%, -1.8%, .
4	CC1CCN(C(=O)C2(NC(=O)Nc3cccc(F)c3)CCCCC2)CC1
  -1.6, 1.3%, -1.9%, -5.3%
5	COc1ccccc1-c1cc(C(=O)NN)[nH]n1
  11.7, 11.4%, 0.2%, 14.3%
6	O=C(CNC(=O)c1ccccc1F)NCCc1ccc(Cl)cc1
  ., ?, -0.4%, -3.2%
7	COc1cc(CCC(=O)Nc2nccs2)cc(OC)c1OC
  ., -7.3%, -1.0%, 4.9%
8	O=C(/C=C/Nc1ccccc1F)c1cccs1
  -12.3, ?, ?, -37.8%
9	O=C(O)CSc1nnc2c(n1)[nH]c1ccccc12
  7.5, -15.2%, -0.4%, -5.4%
10	C/C(=N\NC(=O)c1cccc(S(=O)(=O)N2CCCCC2)c1)c1ccc(C)o1
  0.8, -14.9%, -2.0%, -12.8%
11	CCOc1cc(C)c(Cl)cc1S(=O)(=O)n1nnc2ccccc21
  0.2, -14.4%, ?, -4.6%
12	COc1ccccc1C(O)(C(=O)N(NC(C)=O)c1ccccc1)c1ccccc1OC
  ., -13.0%, 3.6%, 0.8%
13	O=C(O)c1ccc(S(=O)(=O)c2ccc3c(c2)C(=O)N(c2ccc(Br)cc2)C3=O)cc1
  ., -6.1%, -1.5%, -1.2%
14	Cn1cc(CN(Cc2ccccc2)C[C@@H]2CCC(=O)N2)c(-c2ccccc2F)n1
  8.5, -2.3%, 0.6%, 1.8%
15	CCC(=O)Nc1ccc(C(=O)Nc2cccc(C)n2)cc1
  2.1, 7.5%, -3.3%, -42.1%
16	O=C(Cn1cnc2sc(-c3ccccc3)cc2c1=O)NCc1ccco1
  0.1, -0.9%, -2.5%, 1.2%
17	CC[C@]12c3[nH]c4ccccc4c3CCN1C(=O)C(CC(=O)NCCc1ccccn1)C[C@@H]2C(=O)N1CCN(C(=O)C2CC2)CC1 (some centres undefined)
  ., ?, 0.5%, .
18	COc1cc(C(=O)Nc2ccc(C)c(S(=O)(=O)N(C)C)c2)ccc1OCC(=O)N1CCOCC1
  ., -18.1%, -2.6%, .
19	O=C1c2cc(Br)ccc2OC2C=CC=CC12 (centres undefined)
  ., -4.4%, -1.5%, .
20	CC1=C(C(=O)Nc2cccc(F)c2)C(c2ccsc2)C2=C(CC(C)(C)CC2=O)N1 (centres undefined)
  1.6, ?, ?, 17.8%
21	Cc1ccc(NC(=O)N2CCCC(c3ccccc3)C2)cc1 (centres undefined)
  ., ?, 3.3%, -20.0%
22	COc1ccccc1-n1nnnc1S(=O)(=O)Cc1ccc(Cl)cc1
  1.3, 0.9%, -5.0%, ?
23	Cc1ccc(CC(=O)Nc2nc3ccccc3s2)cc1
  -3.3, 0.1%, 2.2%, -36.6%
24	COc1ccc(CN2C(=O)c3cccnc3C2=O)cc1S(=O)(=O)NCc1ccc(C)cc1
  ., -22.1%, -0.5%, -4.6%
25	Cn1ccnc1SCC(=O)N(C1CCCCC1)C1CCCCC1
  -14.7, -5.5%, 1.2%, 9.1%
26	Cc1ccc(-c2onc3ccc(C(=O)O)cc23)cc1
  ., 2.2%, -2.9%, -69.9%
27	Cc1ccccc1NC(=O)c1[nH]cnc1C(=O)NN
  ., -1.8%, 0.5%, -0.9%
28	CCCc1cc(NC(=O)CCl)n(-c2ccccc2)n1
  11.4, -0.4%, ?, 21.5%
29	O=C(Nc1ccc(F)cc1)C(=O)c1cn(CC(=O)N2CCOCC2)c2ccccc12
  ., -15.0%, 3.3%, -6.5%
30	Cc1ccc(C)c(S(=O)(=O)NC(CC(C)C)C(=O)O)c1 (centres undefined)
  4.3, -7.6%, 5.4%, -0.4%
31	CCS(=O)(=O)N1CCC(C(=O)Oc2ccccc2Br)CC1
  ., 2.2%, -1.1%, 5.6%
32	CC(C)C(NS(=O)(=O)c1ccc2c(c1)C(C)(C)C(=O)N2C)C(=O)NCc1ccc(F)cc1 (centres undefined)
  ., -18.4%, 2.3%, 3.2%
33	Cc1ccc(CC(CC(=O)O)C(=O)NCc2ccccc2)cc1 (centres undefined)
  1.9, 14.4%, -0.2%, -8.3%
34	O=C(CCC(=O)c1cccs1)OCC(=O)c1ccccc1
  ., 1.0%, -0.9%, .
35	COC(=O)[C@@H](NC(=O)Nc1ccccc1F)C(C)C
  -7.3, 0.6%, -1.8%, -5.0%
36	S=C(NCCN1CCOCC1)Nc1ccc(Cl)cc1
  -14.6, 12.4%, -1.5%, -4.1%
37	CC(C)(C)c1ccc(OCc2ccc(C(=O)N3CCOCC3)o2)cc1
  -3.8, -4.2%, 5.9%, -7.4%
38	Brc1ccc(OCc2nnc3n2CCC3)cc1
  5.8, -0.1%, 0.7%, -2.7%
39	O=C(Nc1c(Cl)cc(Cl)cc1C(=O)NCc1cccnc1)c1ccc(Cl)cc1Cl
  -3.5, 12.0%, -1.5%, -2.8%
40	O=C(COc1ccc(/C=N/NC(=O)c2ccncc2)cc1)Nc1ccccc1
  ., 9.6%, -2.4%, -37.2%
41	CCn1c(=O)ccc2cc([N+](=O)[O-])ccc21
  4.0, 7.0%, -0.6%, -6.2%
42	CC(C)CN(C(=O)COC(=O)Cc1c[nH]c2ccccc12)c1c(N)n(Cc2ccccc2)c(=O)[nH]c1=O
  ., -4.7%, 0.1%, .
43	COc1ccccc1CNc1cc(C)ccn1
  ., 0.2%, 6.4%, -6.5%
44	Nc1nc2c3ccccc3nc(C3CC3)n2n1
  -0.1, -15.7%, 1.4%, -24.7%
45	O=c1nc2n(c3c4c(sc13)CCC4)CCC2
  5.2, 2.4%, 1.8%, -6.9%
46	O=C(O)c1ccc2c(c1)C(=O)N(c1ccc(OCc3ccccc3)cc1)C2=O
  ., -3.1%, 1.1%, -5.9%
47	COc1cc(C(=S)N2CCOCC2)ccc1O
  -11.7, -10.7%, -1.3%, -1.5%
48	CC(=O)NC1C(OCc2ccccc2)OC(CO)C(OC(C)=O)C1OC(C)=O (centres undefined)
  4.9, -2.1%, 0.5%, -2.9%
49	Cn1c(=O)n(Cc2ccc(F)cc2)c(=O)c2c1nc1n2CCCN1Cc1ccccc1
  -10.5, 10.1%, 4.5%, -7.4%
50	COc1ccc(NC(=O)c2cc(-c3cc(C)ccc3O)n[nH]2)cc1Cl
  -8.4, 5.4%, 6.4%, -15.3%
51	COC(=O)C1CCCN1S(=O)(=O)c1ccccc1NC(=O)c1cc(OC)c(OC)c(OC)c1 (centres undefined)
  ., 15.7%, 3.1%, 15.8%
52	S=c1nc(-c2ccc(Cl)cc2)[nH][nH]1
  7.9, -5.9%, -3.0%, -11.5%
53	CCCS(=O)(=O)N1CCN(Cc2ccc(OCc3ccccc3)c(OC)c2)CC1
  ., 7.6%, 1.4%, .
54	CCCc1n[nH]c2c1/C(=N\O)CCC2
  -4.7, 10.9%, 0.6%, -6.8%
55	Cc1ccc2cc(NC(=O)c3ccccc3)ccc2n1
  ., -6.6%, 2.9%, -40.1%
56	CCc1cccc(C)c1NC(=O)CCOc1ccccc1
  ., -4.9%, 0.5%, -1.3%
57	O=S(=O)(c1ccc(F)cc1)N1CCN(CC(O)COCc2ccccc2)CC1 (centres undefined)
  ., 12.6%, -1.0%, .
58	COc1ccc(CN2C=C3C(=O)C(C)(OC(=O)C4CCCC4)C(=O)C=C3C=C2c2ccsc2)cc1 (centres undefined)
  -2.0&-12.7, -20.7%, ?, -3.4%
59	Cc1ccc(-c2cc(C(=O)NC3CCN(Cc4ccccc4)CC3)c3ccccc3n2)cc1
  ., -0.5%, -0.4%, .
60	Cc1c(C(=O)O)oc2c(F)cccc12
  1.0, 12.7%, 2.0%, -0.5%

The listing continues.
Results follow in this order: GLA inh pH 4.5, Rango release inh, Rango complex inh, miR-21 FLuc
61	O=C(CCN1C(=O)C2CC=C(Cl)CC2C1=O)NCc1ccccc1 (centres undefined)
  -9.3, -5.0%, 1.6%, -4.3%
62	COc1ccc(C(=O)NCC(=O)OCC(=O)N2CCC(C)CC2)cc1OC
  -6.7, 8.1%, -0.4%, 0.2%
63	CCOc1ccc(/C=C/C(=O)N(CC)CC(=O)Nc2ccc3c(c2)OCCO3)cc1OC
  ., -6.6%, -2.5%, .
64	Cc1ccc(CNC(=O)COC(=O)c2cncc(Br)c2)cc1
  4.4, -0.7%, ?, -0.9%
65	COCC1CCN(Cc2c(C(=O)N3CCN(C4CCCCC4)CC3)nc3ccccn23)C1 (centres undefined)
  ., ?, ?, -8.8%
66	O=C(C1=C(O)C(=O)N(CC2CCCO2)C1c1ccccc1[N+](=O)[O-])c1ccco1 (centres undefined)
  ., -6.0%, 1.8%, 1.0%
67	O=C(Nc1ccccc1)N1CCCN(Cc2ccccc2F)C1
  1.1, 3.1%, 0.9%, -8.9%
68	COc1ccccc1/C=N/NC(=O)CCSc1ccccc1
  -0.6, -13.3%, 0.0%, -4.2%
69	Cn1nnnc1Sc1ncnc2scc(-c3cccc(C(F)(F)F)c3)c12
  ., -1.1%, 0.3%, .
70	CCOC(=O)C(NC(=O)c1ccc(OC)cc1)(OCC1(CC)COC1)C(F)(F)F (centres undefined)
  -2.1, -4.7%, 0.5%, 3.4%
71	Cc1cccc(OCC(=O)OC(C)C(=O)Nc2ccc(S(=O)(=O)N3CCCCC3)cc2)c1 (centres undefined)
  ., 6.8%, 4.1%, .
72	COc1ccccc1N(CC(=O)NC1CCCC1)C(=O)CCC(=O)Nc1cc(C)on1
  -2.3, 3.0%, -0.5%, -2.0%
73	COc1ccc2oc(C(=O)OCC(=O)N(C)c3c(N)n(Cc4ccccc4)c(=O)[nH]c3=O)c(C)c2c1
  ., 0.8%, -1.2%, .
74	COc1ccc(-c2noc(CCCC(=O)Nc3ccc(C(N)=O)cc3)n2)cc1OC
  -3.1, 18.9%, -0.7%, 2.9%
75	CCOc1ccc(OCCC(=O)OCC(=O)Nc2ccc(N3CCOCC3)cc2)cc1
  ., 2.5%, -1.4%, -0.1%
76	COc1ccc(C(=O)C2CN(c3ccccc3)CC2c2ccc(Cl)cc2)cc1 (centres undefined)
  5.1, -13.5%, ?, 0.3%
77	CN(C(=O)CN1C(=O)S/C(=C\c2ccc(F)cc2)C1=O)C1CCS(=O)(=O)C1 (centres undefined)
  ., 10.7%, 1.9%, 3.5%
78	C/C=C(/C)C(=O)Nc1cccc(C2=NOC3(C2)C[C@@H](C(N)=O)N(C(=O)CCCCC)C3)c1 (some centres undefined)
  3.5, 24.1%, -6.4%, 3.7%
79	CCc1ccc2c(c1)C(NC(C)=O)C(=O)N2CCN1CCOCC1 (centres undefined)
  ., 2.6%, 0.1%, -1.4%
80	COc1ccc(N2CC(C(=O)Nc3c(C(N)=O)oc4ccccc34)CC2=O)cc1 (centres undefined)
  ., -5.7%, 0.0%, .
81	C[C@@H](NC(=O)c1nc[nH]c1C(=O)NCCCCCNC(=O)OC(C)(C)C)c1ccccc1
  ., -3.5%, 0.0%, .
82	O=C(COc1ccc(Cl)cc1Cl)NC(=O)N1CCCCC1
  -6.0, 15.1%, -6.5%, -64.9%
83	Cc1ccc(S(=O)(=O)NC(=O)c2cccc(Br)c2)cc1
  ., 0.6%, -0.1%, -5.3%
84	Cc1ccc(NC(=O)CCC(=O)NNC(=O)c2cccc([N+](=O)[O-])c2)cc1C
  4.0, ?, 5.7%, -5.2%
85	Cc1cc(NC(=O)C2CC(=O)N(c3ccc(F)cc3)C2)no1 (centres undefined)
  ., -0.7%, 0.8%, ?
